# UCH37 DUB inh: human UCH37 deubiquitinating enzyme inhibition; Q9Y5K5; purified proteasome/UCH37, Ub-AMC cleavage fluorescence; inhibition, % (no concentration beside the values); hit rate 0.33% among 330,000; AID 588478;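 active = mean of two replicates above 20%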;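 note: 0% = compound-free wells with enzyme and 100% = wells lacking proteasome; stock transfer was 100 nL into about 20 µL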
# Target sequence (Q9Y5K5 whole entry, looked up): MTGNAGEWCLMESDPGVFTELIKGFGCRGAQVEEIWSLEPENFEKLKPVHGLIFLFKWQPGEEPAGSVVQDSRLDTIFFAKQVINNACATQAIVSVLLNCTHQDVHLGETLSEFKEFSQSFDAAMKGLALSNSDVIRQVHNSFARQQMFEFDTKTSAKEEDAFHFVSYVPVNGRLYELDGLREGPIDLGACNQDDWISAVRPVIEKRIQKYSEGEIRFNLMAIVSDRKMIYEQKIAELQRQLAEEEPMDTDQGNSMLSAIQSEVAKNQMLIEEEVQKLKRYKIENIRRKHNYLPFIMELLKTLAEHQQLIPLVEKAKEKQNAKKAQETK
#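 Assay system: Proteasome-bound UCH37. Buffer or medium: pH 7.4 Tris-HCl (50 mM) with ovalbumin, ATP-MgCl2, DTT. Incubation: 30 min preincubation with enzyme, 25 min cleavage at room temperature. Measured by: fluorescence, ex 355 nm, em 460 nm. Read-out basis: percent inhibition. Control set: wells without proteasome as full block, compound-free enzyme plus substrate as uninhibited.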
# LANA-H2B inh: blocks KSHV LANA binding to histone H2A/H2B; Q9QR71; cell-free LANA-H2A/H2B peptide, fluorescence polarization; inhibition, % (no concentration beside the values); hit rate 0.6% among 320,000; in the data active = inhibition mostly above about 10%, no sharp cut-off; inactive = mostly below about 6.7%;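 note: stock transfer was 7.5 nL into about 10 µL; 0% = median of vehicle wells and 100% = median of positive control wells; one replicate is shown; the record names a cut of 25% in any replicate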
# Vif A3G: HIV-1 Vif–A3G interaction blockers – biochemical, TR-FRET, GST-Vif 1-94, biotin-A3G peptide, dose response retest, primary screen (AID 1117319). TR-FRET GST-Vif / biotin-A3G peptide binding; higher % means a stronger effect; test concentration not given here; strong numbers were not always called active. inhibition, %, or IC50 in µM where a hit was titrated. hit rate 0.57% among 260,000;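 active = above the screen mean plus three standard deviations and confirmed in dose response; inconclusive = results disagree or hit not tested in dose response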;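 note: Vif residues 1-94 fused to GST binding biotinylated APOBEC3G peptide 110-148; 0% = full assay without inhibitor and 100% = GST in place of GST-Vif; retest series ran down from 100 µM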
# E coli growth: blocks Escherichia coli growth. AID 1053175. hit rate 0.21% among 330,000. OD600 absorbance (test concentration not listed). OD600, 23 h; hits give low values;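 active = OD600 absorbance below the run mean of sample wells minus 3.6 SD, in any replicate, cut at about 0.56 in these data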;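 note: stock transfer was 300 nL into about 60 µL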
# Beta2AR agonist: human beta-2 adrenergic receptor agonism by FAP; P07550; Am2.2-beta2AR cells, FAP receptor internalization, flow cytometry; reference of the scale not given here; response, % (no concentration beside the values); hit rate 0.43% among 340,000;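 active = response above a set limit, near 3 SD of response in nonfluorescent compounds, cut at about 42% in these data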;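 note: stock transfer was 100 nL into about 11 µL; a reference agonist was the positive control; negative values mostly stem from fluorescent compounds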
# HNF4A DNA FP: change in binding of human HNF4 alpha to DNA; AID 1224865; HNF4a-FITC DNA binding, fluorescence polarization, 1 h; hit rate 0.3% among 360,000; activity change, % at 10 µM; P41235; in the data active = activity change above about 30%, passing the limit was not always enough;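 note: controls were the assay level and a saturating level of protein; the project sought stronger binding though the title names inhibitors; some compounds called inactive have numbers as strong as hits; positive values seem to mean higher polarization but the record does not say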
# Target sequence (P41235 whole entry, looked up): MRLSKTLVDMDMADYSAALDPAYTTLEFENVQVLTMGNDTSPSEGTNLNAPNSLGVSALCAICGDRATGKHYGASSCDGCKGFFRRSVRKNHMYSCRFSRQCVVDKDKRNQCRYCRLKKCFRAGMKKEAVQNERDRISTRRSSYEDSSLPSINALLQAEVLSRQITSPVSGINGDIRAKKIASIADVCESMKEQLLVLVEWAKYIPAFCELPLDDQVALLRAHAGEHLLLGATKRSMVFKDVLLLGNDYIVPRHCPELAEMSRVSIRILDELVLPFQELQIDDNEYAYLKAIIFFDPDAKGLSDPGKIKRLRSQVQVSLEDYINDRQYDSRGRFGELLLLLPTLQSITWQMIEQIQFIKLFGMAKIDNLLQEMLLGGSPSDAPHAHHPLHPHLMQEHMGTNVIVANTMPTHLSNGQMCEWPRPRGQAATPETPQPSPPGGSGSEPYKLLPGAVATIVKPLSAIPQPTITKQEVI
# Bfl-1 A1 inh: inhibitors of the anti-apoptotic protein A1, read as caspase activation. MEF A1-2A-BIM cells, Caspase-Glo 3/7 luminescence, 3 h; percent of clofoctol response, vehicle zero. caspase activation, % (concentration not given with the values). hit rate 0.066% among 330,000. AID 2462;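 active = over half of replicate activation scores above 10%, or exactly half above 10 with the replicate mean above 10; inconclusive = replicate mean below 10 yet half the replicates above 10; inactive = over half of replicates below 10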;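 note: wells of about 30 µL received 50 nL stock; many hits fall short of the cut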
# * hit, by the source's call; ? = inconclusive; . = not tested or not shown; & = joins results of further samples.
Compound,UCH37 DUB inh,LANA-H2B inh,Vif A3G,E coli growth,Beta2AR agonist,HNF4A DNA FP,Bfl-1 A1 inh
CCN1C(=O)[C@@H]2[C@@H](c3ccc(SC4CCCCC4)cc3)N3CCC[C@@]3(C(=O)OC)[C@@H]2C1=O,-1.1,-4.5,.,.,2,0.3,-1.8
CC(=O)C1=C(C)NC(=O)CC1c1ccc(F)cc1 (stereo unspecified),4.7,-0.1,-2%,0.65,5,1.7,1.8
COc1ccc(OC)c(NC(=O)C2CCCN(S(C)(=O)=O)C2)c1 (stereo unspecified),5.1,2.6,.,0.7,-5,3.8,0.3
Cc1ccc(S(=O)(=O)CC(=O)NCc2ccc(Cl)cc2)cc1,-2.1,0.2,6%,0.71,1,0.0,0.1
COC(=O)c1ccc(OC)c(CN2CCCN(Cc3ccc(F)cc3)S2(=O)=O)c1,2.5,-1.5,.,0.71,-4,0.3,0.1
CCCN(CC(=O)Nc1c(C)cccc1CC)C(=O)SCC,-0.1,-3.0,-9%,0.72,-2,5.8,-1.2
CCOC(=O)N1CCC2(CC1)CC(=O)c1c(ccc3oc(C(=O)O)c(C)c13)O2,-125,-3.9,-4%,0.71,-2,-0.7,-0.3
Cc1ccc(CN2CC(C(=O)Nc3ccc(S(=O)(=O)Nc4cc(C)nc(C)n4)cc3)CC2=O)cc1 (stereo unspecified),1.1,0.0,5%,0.72,-1,0.6,-0.8
NC1=NC2(CCC(c3ccccc3)CC2)n2c(nc3ccccc32)N1 (stereo unspecified),-0.2,-6.3,1%,0.69,6,1.0,1.2
COc1ccc(-c2cn3c(C)c(C(=O)Nc4cccc(NC(C)=O)c4)sc3n2)cc1,1.5,2.0,-6%,0.67,18,-1.6,0.3
COc1cc(/C=C/C(=O)NCc2nc3ccccc3[nH]2)cc(OC)c1OC,-17,-5.4,?,0.73,7,-2.0,-0.9
COC(=O)CSc1nc(C)cc(C)n1,2.6,-0.8,4%,0.69,-8,1.0,0.7
CCOC(=O)CNNC(=O)Nc1ccc(Cl)c(Cl)c1,7.6,0.1,.,0.65,-5,4.3,0.2
CCOC(=O)N1CCN(C(=O)c2ccc([N+](=O)[O-])cc2Cl)CC1,4.8,-1.1,-6%,0.65,-3,0.4,0.0
O=S(=O)(c1ccc(OCC(O)CN2CCN(c3ccc(F)cc3)CC2)cc1)N1CCOCC1 (stereo unspecified),-1.6,1.3,3%&-6%,0.68,3,1.9,0.3
O=C(CSc1nnc(-c2ccc(Br)o2)n1Cc1ccccc1)c1ccccc1F,4.8,-1.0,?,0.71,4,-2.1,-0.4
CCOC(=O)C(C#N)=CN1CCN(C(=O)CCCl)c2ccccc21,3.2,.,0%,0.66,0,4.9,.
CCOP(=O)(O)c1ccccc1OCCOc1ccccc1P(=O)(O)OCC,6.1,3.3,5%,0.69,-1,-1.6,0.2
Cc1ccccc1-c1cc(C(=O)NCc2cccc(Br)c2)nn1CC1CC(c2cccc([N+](=O)[O-])c2)=NO1 (stereo unspecified),1.5,-2.4,.,0.81,4,-0.5,1.0
O=C(O)CNc1nc(-c2ccccc2)nc2c1oc1ccccc12,3.6,2.4,4%,0.69,0,0.3,-0.1

# Reprinted at random: two entries already listed.
Compound,UCH37 DUB inh,LANA-H2B inh,Vif A3G,E coli growth,Beta2AR agonist,HNF4A DNA FP,Bfl-1 A1 inh
COC(=O)c1ccc(OC)c(CN2CCCN(Cc3ccc(F)cc3)S2(=O)=O)c1,2.5,-1.5,.,0.71,-4,0.3,0.1
CCN1C(=O)[C@@H]2[C@@H](c3ccc(SC4CCCCC4)cc3)N3CCC[C@@]3(C(=O)OC)[C@@H]2C1=O,-1.1,-4.5,.,.,2,0.3,-1.8

# Other compounds:
Compound,UCH37 DUB inh,LANA-H2B inh,Vif A3G,E coli growth,Beta2AR agonist,HNF4A DNA FP,Bfl-1 A1 inh
COc1ccccc1C(CNC(=O)c1cccc(NS(=O)(=O)c2ccc(C)c(F)c2)c1)N(C)C (stereo unspecified),-2.9,4.7,0%,0.69,-1,0.5,0.2
CC(NCc1ccc(OCC(N)=O)cc1)C12CC3CC(CC(C3)C1)C2 (stereo unspecified),6.5,5.0,.,0.69,8,-1.9,0.1
O=S(=O)(Oc1ccccc1)c1ccc(Cl)c(Cl)c1,1.3,.,1%,0.68,0,-1.0,.
Cc1cc(C)n(CCNC(=O)c2ccco2)n1,0.8,2.6,.,0.66,-28,1.5,-0.1
CCOc1ccc(NC(=O)c2ccccc2NS(C)(=O)=O)cc1,4.9,1.7,50%,0.67,-4,-2.4,0.2
C=CCN(C(=O)c1csnn1)C(C(=O)NC1CCCC1)c1ccc(Cl)cc1 (stereo unspecified),0.9,-4.0,-5%,0.7,-2,-2.4,-1.1
O=C(O)c1cccc(CN2C(=O)c3ccccc3C2=O)c1,3.6,-4.0,-3%,0.65,-6,-0.8,-0.8
COC(=O)c1cc(Cl)cc2c(C)c(C3(O)CCCCC3)[nH]c12,0.3,2.8,.,0.77,-6,-2.1,1.3
Cc1cc(-c2ccccc2)c2c(=O)[nH][nH]c2n1,2.6,5.5,-3%,0.72,1,-0.4,1.3
COc1cc(OC)c(OC)cc1CNC(=O)CCN1C(=O)c2cccc([N+](=O)[O-])c2C1=O,1.4,-1.6,-4%,0.65,0,-1.7,0.4
CC(OC(=O)CCc1ccccc1)C(=O)Nc1ccc(Cl)cn1 (stereo unspecified),-0.4,-1.6,-8%,0.63,-5,0.7,-0.2
CCC(CC)c1nn2c(N)c(/C=C3\C=Nc4ccccc43)c(=O)nc2s1,-59,4.1,-4%,0.69,13,7.8,-1.0
Cc1ccc(C)c(S(=O)(=O)N2CCN(C(=O)c3cccnc3)CC2)c1,5.2,-0.8,.,0.65,-4,1.2,0.2
Cc1ccc(C(=O)OCN2C(=O)c3ccccc3C2=O)cc1S(=O)(=O)N1CCOCC1,2.7,-4.1,0%,0.66,-3,-2.1,-0.4
O=C(NC1CCS(=O)(=O)C1)c1cccc(Cl)c1 (stereo unspecified),1.9,3.8,-1%,0.63,-3,3.0,-0.8
COc1ccccc1/C=C/C(=O)OCC(=O)Nc1ccccc1Sc1ccccc1,1.2,1.5,-5%,0.69,17,0.3,0.5
CCn1c(SCC(=O)N(C)CC(=O)Nc2ccc(OC)cc2)nnc1-c1ccco1,1.7,0.9,0%,0.71,-9,-0.4,0.3
C=CCn1c(SCc2cc(=O)n3ccsc3n2)nnc1C1CCCCC1,2.9,-1.3,17%,0.69,2,-7.8,-0.1
O=C(NC1CCCCC1)N1CCN(c2ccc([N+](=O)[O-])cc2)CC1,7.3,-1.9,.,0.71,4,6.3,0.0
COc1cccc(/C=C2\SC(=S)N(CCCC(=O)N(CCO)c3ccccc3)C2=O)c1,3.4,-2.9,-2%,0.72,.,0.3,-0.7

# Additional compounds
Compound,UCH37 DUB inh,LANA-H2B inh,Vif A3G,E coli growth,Beta2AR agonist,HNF4A DNA FP,Bfl-1 A1 inh
O=[N+]([O-])c1cccc(-c2nnc3n2CCCCC3)c1,1.8,2.3,-1%,0.62,-4,-3.2,0.1
Cc1ccccc1NC(=O)CSc1nc2ccccc2c(=O)n1CC1CCCO1 (stereo unspecified),1.6,.,.,0.7,12,-1.4,.
COc1ccc(CN2CCN(CC=C(C)C)C(CCO)C2)cc1Cn1cncn1 (stereo unspecified),3.9,3.0,4%,0.71,19,-2.2,-0.5
CC(C)(C)SCCNC(=O)c1cccc([N+](=O)[O-])c1,4.2,-2.8,4%,0.68,12,1.8,0.6
O=C(N/N=C/C=C/c1ccc2c(c1)OCO2)c1ccc([N+](=O)[O-])cc1,.,1.9,-2%,.,16,-3.8,-0.3
COc1ccccc1N1CCN(C(=O)c2cccc(Oc3ccccc3)c2)CC1,1.4,4.5,7%,0.7,-10,-3.7,-1.1
CSCCC(NC(=O)c1ccc([N+](=O)[O-])cc1Cl)C(=O)OCC(=O)C12CC3CC(CC(C3)C1)C2 (stereo unspecified),-0.2,-3.1,.,0.67,-5,-2.8,0.5
O=C(COc1ccccc1Cl)N1CCN(c2ncccn2)CC1,-1.8,-11,2%,0.73,-16,0.9,0.0
COc1cccc(-c2nc(N3CCCCC3C)c3ccccc3n2)c1O (stereo unspecified),2.0,-1.8,29%,0.71,1,6.5,0.1
O=C(NCc1ccccc1Cl)C1CCN(S(=O)(=O)N2CCCCCC2)CC1,3.6,-3.6,11%,0.71,4,0.3,0.1
O=C1NN(c2ccccc2)C(=O)/C1=C/c1ccc(Sc2ccc(Cl)cc2)o1,12,0.2,-5%,0.63,23,-17,0.8
CCc1nc2ccccc2c(C(=O)Nc2ccc(F)cc2)c1C,2.1,7.9,.,0.69,-4,-1.7,-0.3
CC(=O)c1cc(C)ccc1OC(=O)CN1C(=O)c2ccccc2C1=O,1.5,4.0,.,0.68,0,-1.6,-6.4
Cc1nn(CC(=O)N2CCC(N3CCCCC3)CC2)c(=O)c2c1sc1ccccc12,2.0,-0.9,.,0.7,-3,1.2,-1.0
CC(C)N1C(=O)CC2(CC[N+](C)(CCOC(=O)C(c3ccccc3)c3ccccc3)CC2)C1=O (stereo unspecified),1.4,7.7,22%,0.66,12,-2.7,1.0
Cc1ccc(SCC(=O)N(Cc2nc(-c3ccccc3)no2)C(C)C)cc1,-0.2,2.4,?,0.77,6,1.2,-1.1
COc1ccc(NC2CCCN(C(=O)c3ccc4nc(C)c(C)nc4c3)C2)cc1OC (stereo unspecified),5.6,0.8,11%,0.66,2,-0.9,-0.5
O=c1[nH]c(=S)n(-c2ccc(Br)cc2)c2ncccc12,7.1,-4.5,.,0.63,13,1.1,0.8
N#CC1=C(N)Oc2c(ccc3cccnc23)C1c1cccnc1 (stereo unspecified),-2.6,3.7,?,0.69,-10,-3.4,-0.6
CCN1C[C@@H]2[C@@H]3C(=O)N(C)C(=O)[C@@H]3[C@](CC)(C1=O)N2C(=O)c1ccc(C)cc1,1.4,.,.,.,-3,-2.0,.

# (list continues)
Compound,UCH37 DUB inh,LANA-H2B inh,Vif A3G,E coli growth,Beta2AR agonist,HNF4A DNA FP,Bfl-1 A1 inh
O=C(C1CCCN(c2ncnc3c2nc2n3CCCCC2)C1)N1CCN(c2cccc(Cl)c2)CC1 (stereo unspecified),4.1,1.8,.,0.71,4,-3.4,0.7
NC(=O)C1(N2CCCCC2)CCN(Cc2ccc(Br)cc2)CC1,3.9,-1.2,-3%,0.62,-4,-1.3,0.9
CN(C)CCSc1nnc(-c2ccccc2)o1,4.0,-1.2,-3%,0.71,2,-0.6,-0.3
COc1ccc(CC(=O)Nc2cc(C)c3c(=O)oc4ccccc4c3n2)cc1,4.3,-0.5,.,0.73,4,0.5,0.1
CC(C)CNC(=O)COCc1cc(-c2ccc3c(c2)OCO3)on1,3.5,1.3,5%,0.62,-3,-0.8,0.1
CCOc1ccc(NC(=O)C2CC(=O)OC2c2ccccc2)cc1 (stereo unspecified),1.6,1.3,1%,0.71,-6,-4.5,1.3
CSc1nc(N)nc2c1ncn2CC(=O)NCc1ccc2[nH]ccc2c1,4.6,4.2,2%,0.7,1,-0.5,0.4
O=C(c1c[nH]c2ccccc12)N1CCOCC1,2.4,40*,-1%,0.69,1,-0.1,0.5
Cc1cccc(OCC(=O)NC(=S)Nc2ccccc2N2CCOCC2)c1C,6.7,1.7,.,0.69,4,2.5,-1.1
O=C(NC1(C(F)(F)F)C(=O)Nc2c1c(=O)[nH]c(=O)n2-c1ccccc1)c1cccnc1 (stereo unspecified),2.3,-3.3,5%,0.69,12,0.8,-0.9
O=C(Nc1cccc(-c2ccc(F)cc2)c1)C1CCCN(C(=O)c2cscn2)C1 (stereo unspecified),1.1,-0.8,.,0.7,-16,0.8,-0.4
Cc1ccc(Nc2nc(COC(=O)COc3ccc(C=O)cc3)cs2)cc1,2.8,1.1,-10%,0.68,10,-0.1,0.3
